Screens (PubChem BioAssay)
GLD-1 RNA inh: GLD-1-TGE RNA interaction inhibition (C. elegans). purified GLD-1 + fluorescein TGE RNA, fluorescence polarization. inhibition, % at 5.96 µM. 320,000 compounds, 0.44% hits. AID 2280;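 active = percent inhibition above a per-plate cutoff, the plate mean of test compounds plus 3 SD, cut at about 30% in these data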;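 note: 0% = DMSO wells with GLD-1 and probe and 100% = wells lacking GLD-1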
Bcl-xL primary: Bcl-xL (human) inhibition; Q07817; 320,000 compounds, 0.7% hits; inhibition, % at 10.9 µM; AID 2129; GST-Bcl-xL / FITC-Bim BH3 peptide fluorescence polarization;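 active = inhibition above the mean of all tested compounds plus 3 SD, cutoff set per campaign, cut at about 30% in these data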;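 note: 0% = DMSO wells and 100% = unlabeled Bim-BH3 peptide competitor; inhibitors lower millipolarization by displacing the labeled peptide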
ZTA DNA inh: blocks Epstein-Barr virus ZTA, an EBNA-1 counter-screen. inhibition, % at 11 µM. ZTA-DNA binding, fluorescence polarization. P03206. AID 2234. 320,000 compounds, 0.15% hits; in the data active = inhibition above about 33%
Yeast superoxide: yeast age-related superoxide inhibition as caloric restriction mimetic | S. cerevisiae aged cells, superoxide DHE fluorescence; hits give low values | superoxide response (% of plate mean), % at 10 µM | 330,000 compounds, 0.18% hits | AID 2690;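 active = superoxide response under a set limit, about three screen SD below normal, cut at about 65% in these data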;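 note: yeast aged for seven days with compound at 30 °C before DHE staining; 100% = average MFI of all compound-treated wells on the plate with controls excluded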
MEX-5 binding: C. elegans MEX-5 TCR-2 RNA binding activity; MEX-5/FITC-TCR2 RNA binding, fluorescence polarization; hits give low values; activity score (negative = inhibition of binding), % at 10 µM; 300,000 compounds, 0.38% hits; AID 1832;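 active = inhibition past about -25% in most replicates, and total fluorescence under double the plate's negative control median, limit read from the data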;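 note: 0% = DMSO and -100% = 5 µM competing unlabeled TCR2 RNA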
Target sequence (Q9XUB2 whole entry, looked up): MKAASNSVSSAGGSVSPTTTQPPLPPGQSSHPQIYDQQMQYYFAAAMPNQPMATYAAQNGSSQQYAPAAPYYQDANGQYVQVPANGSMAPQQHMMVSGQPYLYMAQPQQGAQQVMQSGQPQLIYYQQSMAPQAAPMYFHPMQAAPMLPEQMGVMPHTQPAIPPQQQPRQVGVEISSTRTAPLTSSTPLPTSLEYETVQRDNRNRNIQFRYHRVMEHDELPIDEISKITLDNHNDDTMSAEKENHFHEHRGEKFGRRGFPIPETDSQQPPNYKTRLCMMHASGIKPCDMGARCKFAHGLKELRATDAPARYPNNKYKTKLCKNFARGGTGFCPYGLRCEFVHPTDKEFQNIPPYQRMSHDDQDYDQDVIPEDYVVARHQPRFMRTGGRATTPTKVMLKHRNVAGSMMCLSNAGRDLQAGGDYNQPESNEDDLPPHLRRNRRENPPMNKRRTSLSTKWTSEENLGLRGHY
An asterisk follows results filed as active; . = no result given; & = joins results of further samples.

Below each SMILES – GLD-1 RNA inh, Bcl-xL primary, ZTA DNA inh, Yeast superoxide, MEX-5 binding
> COc1ccc(-c2csc3nc(-c4ccccc4F)oc(=O)c23)cc1OC
  4, 8, -14, 97, -1.3
> Cc1nc2ccc(S(=O)(=O)NCC(=O)NCCN3CCCCCC3)cc2s1
  -7, 41*, 2, 102, 0.0
> CC(C)(C)CC(C)(C)c1ccc(OCCOCC[N+](C)(C)Cc2ccccc2)cc1
  4, 7, -1, 107, .
> CN=C(C[N+](=O)[O-])NCCSCc1ccc(CN(C)C)o1
  2, ., ., 113, .
> Cc1nc(-c2ccccc2)c(-c2ccccc2)[nH]1
  -16, -2, -6, 87, 3.8
> CC(C)[N+]1(C)[C@@H]2CC[C@@H]1CC(OC(=O)C(CO)c1ccccc1)C2 (stereo partly specified)
  2, 8, 12, 90, .
> O=C(O)COCCN1CCN([C@H](c2ccccc2)c2ccc(Cl)cc2)CC1
  1, 17, -11, 102, 1.6
> Cc1nn(CC(=O)O)c(C)c1Cl
  6, 2, 14, 108, -1.7
> COC(=O)C1=C(C)NC(C)=C(C(=O)OCCN(C)Cc2ccccc2)C1c1cccc([N+](=O)[O-])c1 (stereo unspecified)
  9, 2, -9, 114, 0.9
> N#Cc1c(-c2cccc(Br)c2)cc(-c2ccco2)[nH]c1=O
  21, 14, 0, 109, 1.8

Three entries from above, with tabs:
SMILES	GLD-1 RNA inh	Bcl-xL primary	ZTA DNA inh	Yeast superoxide	MEX-5 binding
COC(=O)C1=C(C)NC(C)=C(C(=O)OCCN(C)Cc2ccccc2)C1c1cccc([N+](=O)[O-])c1 (stereo unspecified)	9	2	-9	114	0.9
CC(C)[N+]1(C)[C@@H]2CC[C@@H]1CC(OC(=O)C(CO)c1ccccc1)C2 (stereo partly specified)	2	8	12	90	.
COc1ccc(-c2csc3nc(-c4ccccc4F)oc(=O)c23)cc1OC	4	8	-14	97	-1.3

The results go on:
Below each SMILES – GLD-1 RNA inh, Bcl-xL primary, ZTA DNA inh, Yeast superoxide, MEX-5 binding
> Nc1ccc(OCCc2ccccc2)cc1
  -5, -1, -10, 105, 2.9
> O=C(O)CCNC(=O)c1ccccc1
  9, 2, 29, 100, -2.3
> CN/C(=C/[N+](=O)[O-])NCCSCc1ccc(CN(C)C)o1
  3, 16, 5, 89, -0.4
> CC12CCC(=O)C=C1CCC1C2C(O)CC2(C)C1CCC2(O)C(=O)CO (stereo unspecified)
  4, 1, 17, 98, 1.1
> C[C@H](C(=O)O)c1cccc(C(=O)c2ccccc2)c1
  -4, -3, -6, 105, 0.2
> COc1c(N2C[C@@H]3CCCN[C@@H]3C2)c(F)cc2c(=O)c(C(=O)O)cn(C3CC3)c12
  -1, 7, 16, 87, -1.1
> COc1ccc(CC(=O)Nc2nc3ccccc3[nH]2)cc1
  -4, 1, -14, 94, -0.7
> Cc1cccc(N2CCN(C(=O)c3cc4c(=O)n(C)c5ccccc5c4n3C)CC2C)c1 (stereo unspecified)
  -9, 4, 7, 107, 0.8
> COc1ccc(-c2cc(=O)c3c(O)cc(O)cc3o2)cc1
  3, 0, 6, 93, .
> CN1C2CC(OC(=O)C(CO)c3ccccc3)CC1C1OC12 (stereo unspecified)
  3&-1, 6&3, 16&-12, 87&120, -0.4&1.6
> O=C(COc1cccc(NC(=O)c2cccc([N+](=O)[O-])c2)c1)c1ccc(Br)cc1
  8, 6, 0, 103, -0.2
> CCCC(=O)Nc1ccc(OCC(O)CNC(C)C)c(C(C)=O)c1 (stereo unspecified)
  3, 4, -23, 103, -3.2
> CC1(C)S[C@@H]2[C@H](NC(=O)[C@H](N)c3ccccc3)C(=O)N2[C@H]1C(=O)O
  3&6, 5&0, 4&1, 103&98, -1.0&-0.7
> COc1ccc(-c2csc(Nc3ccccn3)n2)cc1
  5, -2, -24, 100, 1.5
> CN(C)c1ccc(O)c2c1CC1CC3[C@@H](N(C)C)C(=O)C(C(N)=O)C(=O)[C@]3(O)C(=O)C1C2=O (stereo partly specified)
  -3, ., ., 101, .
> CC(C)(C(=O)O)c1ccc(C(O)CCCN2CCC(C(O)(c3ccccc3)c3ccccc3)CC2)cc1 (stereo unspecified)
  0, 0, 3, 105, 2.1
> O=C(O)CCc1nc(-c2ccccc2)c(-c2ccccc2)o1
  3, -1, 5, 90, 1.4

Filtered by structure: the compounds so far containing a COOH group.
Below each SMILES – GLD-1 RNA inh, Bcl-xL primary, ZTA DNA inh, Yeast superoxide, MEX-5 binding
> O=C(O)COCCN1CCN([C@H](c2ccccc2)c2ccc(Cl)cc2)CC1
  1, 17, -11, 102, 1.6
> Cc1nn(CC(=O)O)c(C)c1Cl
  6, 2, 14, 108, -1.7
> O=C(O)CCNC(=O)c1ccccc1
  9, 2, 29, 100, -2.3
> C[C@H](C(=O)O)c1cccc(C(=O)c2ccccc2)c1
  -4, -3, -6, 105, 0.2
> COc1c(N2C[C@@H]3CCCN[C@@H]3C2)c(F)cc2c(=O)c(C(=O)O)cn(C3CC3)c12
  -1, 7, 16, 87, -1.1
> CC1(C)S[C@@H]2[C@H](NC(=O)[C@H](N)c3ccccc3)C(=O)N2[C@H]1C(=O)O
  3&6, 5&0, 4&1, 103&98, -1.0&-0.7
> CC(C)(C(=O)O)c1ccc(C(O)CCCN2CCC(C(O)(c3ccccc3)c3ccccc3)CC2)cc1 (stereo unspecified)
  0, 0, 3, 105, 2.1
> O=C(O)CCc1nc(-c2ccccc2)c(-c2ccccc2)o1
  3, -1, 5, 90, 1.4

The list is partial; count on the stated rates, not on these rows.
